Source: PubChem (Broad Institute)
rRNA inh HTS: selective bacterial rRNA inhibition in E. coli | AID 720706 | actives 1.6% (n = 350,000) | GFP signal change (wild-type ribosome), % (test concentration not listed) | E. coli WT GFP vs humanized-ribosome RFP mutants, fluorescence, 24 h; active compounds read low; DMSO median 0, no signal -100;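 active means significant combined selectivity score with lowered wild-type GFP, culture density cut under 30%, mutant RFP and density less affected; inactive means any of these conditions unmet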; further: one replicate is shown; some compounds called inactive have numbers as strong as hits
rRNA inh HTS OD600: recorded beside rRNA inh HTS, whose call it bears; OD600 change, %; measured here: OD600 growth;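 optical density of the mix in the first replicate; 0 = DMSO median and -100 = no signal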
rRNA inh HTS RFP: recorded beside rRNA inh HTS, whose call it bears; RFP signal change, %; measured here: RFP humanized mutant strains;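 first replicate; 0 = DMSO median and -100 = no signal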
An asterisk follows results filed as active; & = joins results of further samples. A portion of the library. The share of hits here may be higher or lower than overall.

SMILES | rRNA inh HTS | rRNA inh HTS OD600 | rRNA inh HTS RFP
C[C@H](CO)N1C[C@H](C)[C@@H](CN(C)Cc2cccnc2)OCc2cn(nn2)CCCC1=O | 0 | 5 | -1.8
C[C@@H]1CN([C@H](C)CO)C(=O)c2c(c3ccccc3n2C)-c2ccccc2CO[C@H]1CN(C)Cc1cccnc1 | -4 | -10 | 9.1
CCCNC(=O)N1CC2(C1)CN(C(=O)CCC)[C@H](CO)c1[nH]c3cc(OC)ccc3c12 | 3 | 7 | -2.2
CO[C@@H]1CN(C)C(=O)c2ccc(NC(C)=O)cc2OC[C@H](C)N(C(=O)c2cnccn2)C[C@H]1C | 2 | 7 | -0.5
O=C1CCC(=O)N[C@@H](c2ccc3c(c2)OCO3)C/C=C\CCN1 | 0 | 6 | -2.5
C[C@H](CO)N1C[C@H](C)[C@@H](CN(C)C(=O)c2ccccc2F)Oc2cc(-c3ccccc3)ccc2S1(=O)=O | -9 | -28 | 0.4
C[C@H]1CN([C@@H](C)CO)C(=O)Cc2cc(NC(=O)Nc3ccccc3)ccc2O[C@@H]1CN(C)Cc1ccc(C(=O)Nc2ccccc2N)cc1 | 1 | 2 | -0.6
O=C(NC[C@@H]1[C@@H](c2ccccc2)[C@@H](CO)N1CC1CCCC1)c1cccnc1 | 1 | -2 | -0.4
C[C@@H]1CN([C@@H](C)CO)C(=O)c2cc(NS(=O)(=O)c3ccccc3)ccc2O[C@H]1CN(C)S(=O)(=O)c1ccc(F)cc1 | -6 | -8 | -3.1
CNC[C@@H]1Oc2ccc(N(C)C)cc2CC(=O)N(C)C[C@@H]1C | -1 | 1 | -1.4
CC(C)CC#Cc1ccc2c(c1)O[C@@H](CN(C)C(=O)C1CC1)[C@H](C)CN([C@@H](C)CO)S2(=O)=O | -14 | -44 | 13
CC=Cc1ccc2n(c1=O)C[C@H]1[C@H](CO)[C@@H](C(=O)N[C@@H](C)c3ccccc3)[C@@H]2N1Cc1cccnc1 (mixture of isomers) | 0 | 3 | -2.8
CCc1csc(N2[C@H](CNCCOC)[C@H](c3ccccc3)[C@@H]2CO)n1 | 0 | 0 | -1.2
COc1ccccc1NC(=O)N1CC(=O)N2[C@H](C1)[C@H](c1ccc(C#CCC(C)C)cc1)[C@@H]2CO | -12 | -40 | 26
CCC(=O)N1CC2(C1)[C@H](c1ccc(-c3ccccc3)cc1)[C@H](CO)N2C(C)=O | -2 | 2 | -0.9
OCCNc1ncnc2c1ncn2[C@H]1CN(Cc2ccc(-c3ccccc3)cc2)C[C@@H](CO)O1 | -1 | -2 | 1.2
C[C@@H]1CN([C@H](C)CO)C(=O)CCCn2cc(nn2)CO[C@@H]1CN(C)C(=O)C1CCCCC1 | 1 | 5 | -3.3
C[C@H]1CN([C@@H](C)CO)C(=O)c2ccccc2-c2ccccc2CO[C@@H]1CN(C)C(=O)Nc1cccc(Cl)c1Cl | 2 | 4 | -1.9
C/C=C/c1ccc([C@H]2[C@@H](CO)N(C(=O)Cc3ccncc3)[C@@H]2CNC(C)=O)cc1 | 2 | 7 | -0.3
C[C@@H]1CN([C@H](C)CO)C(=O)c2cccc(NS(=O)(=O)c3ccc(Cl)cc3)c2O[C@H]1CN(C)C(=O)Nc1ccc(F)cc1 | 0 | -2 | -0.2
CC(C)C#Cc1ccc2c(c1)O[C@@H](CN(C)C(=O)C1CCC1)[C@@H](C)CN([C@@H](C)CO)S2(=O)=O | -5 | -25 | -0.5
CC=Cc1ccc2n(c1=O)C[C@H]1[C@H](CO)[C@@H](C(=O)NCc3ccccn3)N(CCC)[C@@H]21 (mixture of isomers) | 1 | 3 | 3.2
CO[C@H]1CN(C)C(=O)c2ccc(NC(=O)C3CCOCC3)cc2OC[C@H](C)N(C(=O)c2ccccc2)C[C@@H]1C | 0 | -1 | 1.2
Cc1ccc(S(=O)(=O)Nc2ccc3c(c2)C(=O)N([C@@H](C)CO)C[C@@H](C)[C@@H](CN(C)Cc2ccc(C(F)(F)F)cc2)O3)cc1 | -4 | -37 | 7.7
CC(C)NC(=O)N(C)C[C@H]1OCc2cn(nn2)CCCC(=O)N([C@H](C)CO)C[C@H]1C | 0 | -5 | -0.8

Sorted by length of the SMILES (ascending): some entries from above.
SMILES | rRNA inh HTS | rRNA inh HTS OD600 | rRNA inh HTS RFP
O=C1CCC(=O)N[C@@H](c2ccc3c(c2)OCO3)C/C=C\CCN1 | 0 | 6 | -2.5
CCc1csc(N2[C@H](CNCCOC)[C@H](c3ccccc3)[C@@H]2CO)n1 | 0 | 0 | -1.2
O=C(NC[C@@H]1[C@@H](c2ccccc2)[C@@H](CO)N1CC1CCCC1)c1cccnc1 | 1 | -2 | -0.4
CCC(=O)N1CC2(C1)[C@H](c1ccc(-c3ccccc3)cc1)[C@H](CO)N2C(C)=O | -2 | 2 | -0.9
C/C=C/c1ccc([C@H]2[C@@H](CO)N(C(=O)Cc3ccncc3)[C@@H]2CNC(C)=O)cc1 | 2 | 7 | -0.3
CC(C)C#Cc1ccc2c(c1)O[C@@H](CN(C)C(=O)C1CCC1)[C@@H](C)CN([C@@H](C)CO)S2(=O)=O | -5 | -25 | -0.5
CO[C@H]1CN(C)C(=O)c2ccc(NC(=O)C3CCOCC3)cc2OC[C@H](C)N(C(=O)c2ccccc2)C[C@@H]1C | 0 | -1 | 1.2
CC=Cc1ccc2n(c1=O)C[C@H]1[C@H](CO)[C@@H](C(=O)N[C@@H](C)c3ccccc3)[C@@H]2N1Cc1cccnc1 (mixture of isomers) | 0 | 3 | -2.8
C[C@@H]1CN([C@@H](C)CO)C(=O)c2cc(NS(=O)(=O)c3ccccc3)ccc2O[C@H]1CN(C)S(=O)(=O)c1ccc(F)cc1 | -6 | -8 | -3.1
Cc1ccc(S(=O)(=O)Nc2ccc3c(c2)C(=O)N([C@@H](C)CO)C[C@@H](C)[C@@H](CN(C)Cc2ccc(C(F)(F)F)cc2)O3)cc1 | -4 | -37 | 7.7

Further results follow:
SMILES | rRNA inh HTS | rRNA inh HTS OD600 | rRNA inh HTS RFP
O=C1N[C@H](Cc2ccccc2)COCc2cnnn2CC[C@@H]1Cc1cccc(Cl)c1 | 0 | 2 | -3.0
NCC[C@H]1CC[C@H](NC(=O)c2ccccc2F)[C@H](CO)O1 | 4&2 | 1&-8 | -0.1&-0.6
CNC[C@@H]1Oc2ccc(NS(C)(=O)=O)cc2CC(=O)N(C)C[C@H]1C | -1 | -4 | -2.2
C[C@@H]1CN([C@@H](C)CO)C(=O)c2cc(NC(=O)CCCN(C)C)ccc2O[C@@H](C)CCCCO[C@@H]1CN(C)C | 4 | 11 | 1.4
COc1ccccc1CN1[C@H](C(=O)NCCc2ccncc2)[C@@H](CO)[C@@H]2Cn3c(cccc3=O)[C@@H]21 | -1 | 5 | -1.9
COc1ccc2c3c([nH]c2c1)[C@H](CO)N(C(=O)Nc1ccc(F)cc1)CC31CN(C(=O)Cc2ccccc2)C1 | -10 | -52 | 38
C/C=C/c1ccc([C@H]2[C@@H](CN(C)C(=O)c3ccccn3)N(C(C)=O)[C@H]2CO)cc1 | -1 | -2 | -2.9
CC(C)NC(=O)Nc1ccc2c(c1)CC(=O)N(C)C[C@@H](C)[C@H](CN(C)C(=O)OC(C)(C)C)O2 | 0 | 6 | 0.7
C[C@H](CO)N1C[C@H](C)[C@H](CN(C)S(C)(=O)=O)Oc2ccc(NS(=O)(=O)c3ccc(Cl)cc3)cc2C1=O | 1 | -10 | 1.4
CO[C@@H]1CN(C)C(=O)c2ccc(NC(C)=O)cc2OC[C@H](C)N(Cc2ccccc2F)C[C@@H]1C | -5 | -3 | 0.8
C[C@H](CO)N1C[C@H](C)[C@H](CN(C)C(=O)Nc2cc(F)ccc2F)Oc2cc(C#CC3CC3)ccc2S1(=O)=O | -2 | 0 | -0.3
C[C@H]1CN([C@@H](C)CO)C(=O)Cc2cc(NS(=O)(=O)c3ccc(F)cc3)ccc2O[C@@H]1CN(C)Cc1ccc(-c2ccccc2)cc1 | 0 | 10 | -1.7
C[C@H](CO)N1C[C@H](C)[C@@H](CN(C)C(=O)C2CCC2)Oc2cc(-c3ccncc3)ccc2S1(=O)=O | -2 | -2 | -1.3
O=C(NCc1ccccc1)[C@H]1[C@H](CO)[C@H]2Cn3c(ccc(-c4cccnc4)c3=O)[C@H]2N1Cc1cocn1 | 1 | 0 | -1.1
C[C@@H]1CN(C)C(=O)Cc2cc(N)ccc2O[C@H]1CN(C)C | -1 | -3 | -1.1
CNC[C@H]1Oc2ccc(NS(C)(=O)=O)cc2CC(=O)N(C)C[C@H]1C | 2 | 8 | -1.0
C[C@@H]1CN(C)C(=O)c2cc(NS(C)(=O)=O)ccc2O[C@@H]1CN(C)C | 1 | 2 | -0.7
O=C(NCC[C@H]1CC[C@@H](NS(=O)(=O)Cc2ccccc2)[C@@H](CO)O1)C1CCC1 | -1 | 1 | -2.7
C[C@H]1CN([C@@H](C)CO)C(=O)CCCn2nncc2CO[C@@H]1CN(C)C(=O)Nc1cccc(F)c1 | -2 | 0 | -2.4
C[C@H](CO)N1C[C@H](C)[C@H](CN(C)S(=O)(=O)c2ccc(F)cc2)Oc2c(NS(C)(=O)=O)cccc2C1=O | 4 | 5 | -1.6
C[C@H](CO)N1C[C@H](C)[C@@H](CN(C)S(=O)(=O)c2cccs2)Oc2c(NC(=O)Cn3cnnn3)cccc2C1=O | -5 | 4 | -1.6
COc1ccccc1C(=O)Nc1ccc2c(c1)OC[C@@H](C)N(CC1CC1)C[C@H](C)[C@H](OC)CN(C)C2=O | -1 | -13 | 0.5
O=C(C1CC1)N1C[C@H]2[C@@H](c3ccccc31)[C@H](CO)N2C(=O)c1cccc(F)c1 | 5 | 2 | -1.8
C[C@H](CO)N1C[C@H](C)[C@H](CN(C)CC2CCCCC2)Oc2c(NC(=O)CCCCCC(=O)Nc3ccccc3N)cccc2C1=O | 6 | 1 | -1.9
Cn1cnc(S(=O)(=O)N2CCCCN3[C@H](CO)[C@H](c4ccc(C5=CCCCC5)cc4)[C@@H]3C2)c1 | -1 | -2 | 3.3

Later entries.
SMILES | rRNA inh HTS | rRNA inh HTS OD600 | rRNA inh HTS RFP
CNC[C@@H]1Oc2ccc(N)cc2C(=O)N(C)C[C@H]1C | 2 | 10 | -1.8
CO[C@H]1CN(C)C(=O)c2ccc(NC(=O)C3CCC3)cc2OC[C@H](C)N(CC2CCCCC2)C[C@H]1C | 2 | 0 | 4.0
CN(C[C@@H]1N[C@H](CO)[C@H]1c1ccc(C2=CCCC2)cc1)C(=O)c1ccncc1 | 3 | -2 | -4.5
CC(C)NC(=O)N(C)C[C@H]1Oc2ncc(C#CC3CCCCC3)cc2C(=O)N([C@H](C)CO)C[C@H]1C | 3 | -1 | -0.3
COCC(=O)Nc1ccc2c(c1)C(=O)N(C)C[C@H](OC)[C@H](C)CN[C@@H](C)CO2 | 2 | 2 | -1.3
COc1ccc(NC(=O)N2CC[C@@H]3[C@@H](CO)N(C)c4ccc(-c5cccc(F)c5)cc4[C@@H]32)cc1 | 6 | 20 | 3.6
C[C@H](CO)N1C[C@H](C)[C@H](CN(C)C(=O)C2CC2)Oc2cc(-c3ccc(F)cc3)ccc2S1(=O)=O | -7 | -10 | 0.1
CNC[C@@H]1Oc2ccc(N)cc2CC(=O)N(C)C[C@H]1C | 1 | -1 | -1.9
CCCN1C[C@H](C)[C@@H](OC)CN(C)C(=O)c2cc(NC(=O)c3cccc(OC)c3)ccc2OC[C@H]1C | -2 | -12 | 3.2
CCC(=O)N1CC(=O)N2[C@H](CO)[C@@H](c3ccc(C#CC(C)C)cc3)[C@H]2C1 | 4 | -7 | -0.8
C[C@@H]1CN([C@H](C)CO)S(=O)(=O)c2ccc(C#CCN(C)C)cc2O[C@@H]1CN(C)S(=O)(=O)c1cccc(F)c1 | -6 | -1 | -1.6
COc1ccc2c3c([nH]c2c1)[C@H](CO)N(Cc1cc(F)ccc1F)CC31CCN(C)CC1 | 0 | -7 | 2.5
COCC#Cc1ccc([C@H]2[C@@H](CO)N3C(=O)CN(C(=O)Nc4cc(F)ccc4F)C[C@H]23)cc1 | 3 | -1 | -3.2
Cc1noc(C)c1S(=O)(=O)N(C)C[C@H]1Oc2ccc(NS(=O)(=O)c3ccc(F)cc3)cc2C(=O)N([C@@H](C)CO)C[C@H]1C | -2 | -14 | 0.9
CCCN1C[C@H](C)[C@@H](OC)CN(C)C(=O)c2cc(NC(=O)CC)ccc2OC[C@H]1C | 0 | 3 | -0.6
C[C@@H]1CN([C@@H](C)CO)C(=O)CCCn2cc(nn2)CO[C@@H]1CN(C)Cc1ccncc1 | 3 | 7 | -3.7
CC(C)NC(=O)Nc1ccc2c(c1)CC(=O)N(C)C[C@@H](C)[C@H](CN(C)C)O2 | 6 | 14 | 1.6
CO[C@@H]1CN(C)C(=O)c2cc(NC(=O)C3CC3)ccc2OC[C@H](C)N(CCc2ccccc2)C[C@H]1C | -5 | -16 | 2.1
CCCNC(=O)N1CC(=O)N2[C@H](CO)[C@H](c3ccc(C#Cc4ccccc4)cc3)[C@@H]2C1 | 5 | 4 | 5.8
CNC[C@@H]1Oc2c(NC(=O)c3cnccn3)cccc2C(=O)N([C@@H](C)CO)C[C@@H]1C | 4 | 11 | -1.5
Cc1noc(C)c1NC(=O)N(C)C[C@@H]1Oc2ncc(C3=CCCCC3)cc2C(=O)N([C@@H](C)CO)C[C@@H]1C | 5 | 14 | -1.0
C[C@@H]1CN([C@H](C)CO)C(=O)Cc2cc(NS(=O)(=O)c3ccc(Cl)cc3)ccc2O[C@@H]1CN(C)Cc1ccc(-c2ccccc2)cc1 | 4 | 1 | 3.1
C[C@H](CO)N1C[C@H](C)[C@@H](CN(C)S(=O)(=O)c2cccs2)Oc2c(NS(=O)(=O)c3cccs3)cccc2C1=O | -6 | -8 | -0.7
FC(F)(F)CN1C[C@@H]2C(c3ccccc3)[C@H](C1)N2CC(F)(F)F (some centres not stated) | 2 | 2 | 1.9
CC(=O)N(C)C[C@H]1Oc2c(N)cccc2C(=O)N(C)C[C@@H]1C | 2 | -4 | -1.7
